From PubChem BioAssay
gsp agonist: gsp mutant agonism | gsp mutant cells, cAMP HTRF, 30 min; control for the full effect not named in the record | Potency, µM (series often up to 76.9 µM), for inactives: at the highest dose activation (cAMP increase), actives largely listed as activators | 0.13% of 340,000 active | AID 624287; active = well fitted activation curve with a large enough effect; inconclusive = small, poorly fitted or top-dose-only effect, or another doubt; inactive = no such curve, though single readings can be large or run the other way; cell line not stated here;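 note: phosphodiesterase inhibitor Ro 20-1724 added with compounds to block cAMP breakdown; potency is the fitted concentration of half-maximal effect; nearly all actives have a fitted effect of over 60% in size; about a fifth of the inactives were tested at one dose only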
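Cells stably selected in G418 were plated at 2000/well, grown 16-24 hr, then given compounds in DMSO with the PDE inhibitor […] (300 uM solution added) for 30 min at 37C; cAMP was read by HTRF.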
gsp antagonist: antagonists of gsp mutant (McCune-Albright syndrome) | Potency, µM (titrated, usually from 76.9 µM), without a hit: top-dose activity change, negative = inhibition, most hits filed as inhibitors | 0.4% of 340,000 active | gsp-mutant cells, cAMP HTRF, 30 min; control for the full effect not named in the record; active = falling curve of any shape with a large fitted effect; inconclusive = falling curve, mostly with a smaller effect; inactive = flat or rising curve; cell line not stated here;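 note: intracellular cAMP measured with PDE inhibitor Ro 20-1724 present during compound exposure; potency is the fitted concentration of half-maximal effect; % is set by controls: 0 for no effect and ±100 for the full control effect; nearly all actives have a fitted effect of over 65% in size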
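HTRF cAMP measurement after 30 min RT detection following 30 min, 37C compound treatment alongside […] (added as 300 uM solution) in G418-selected cells seeded at 2000/well and grown 16–24 h.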
Menin MLL FP FL: displaces fluorescein MLL peptide from human menin | Fluorescence polarization, fluorescein-MLL peptide displacement from menin | FP activity change, % at 61.4 µM | 290,000 tested, under 10 active | AID 1766; inconclusive = falling polarisation curve, or a change in total fluorescence; inactive = total fluorescence flat and polarisation flat or rising; no compound was filed as active; the % refers to the polarisation; negative = inhibition;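 note: % of control where 0% means no effect; inhibitors lower the polarisation; unlabelled MLL peptide was the positive control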
TRPML1 ag: activates the human TRPML1 channel. Q9GZU1. activation, % (test concentration not listed). 0.12% of 410,000 active. TRPML1-expressing cells, Ca2+ dye fluorescence, FDSS; host cell line not named in the record; reference of the full effect not given here. AID 624414; in the data active = activation above about 50%; inconclusive = about 30% to 50%; inactive = below about 30%; note: 0% is about no effect; the text of the record puts the active cut at 80%
Target sequence (Q9GZU1 whole entry, looked up): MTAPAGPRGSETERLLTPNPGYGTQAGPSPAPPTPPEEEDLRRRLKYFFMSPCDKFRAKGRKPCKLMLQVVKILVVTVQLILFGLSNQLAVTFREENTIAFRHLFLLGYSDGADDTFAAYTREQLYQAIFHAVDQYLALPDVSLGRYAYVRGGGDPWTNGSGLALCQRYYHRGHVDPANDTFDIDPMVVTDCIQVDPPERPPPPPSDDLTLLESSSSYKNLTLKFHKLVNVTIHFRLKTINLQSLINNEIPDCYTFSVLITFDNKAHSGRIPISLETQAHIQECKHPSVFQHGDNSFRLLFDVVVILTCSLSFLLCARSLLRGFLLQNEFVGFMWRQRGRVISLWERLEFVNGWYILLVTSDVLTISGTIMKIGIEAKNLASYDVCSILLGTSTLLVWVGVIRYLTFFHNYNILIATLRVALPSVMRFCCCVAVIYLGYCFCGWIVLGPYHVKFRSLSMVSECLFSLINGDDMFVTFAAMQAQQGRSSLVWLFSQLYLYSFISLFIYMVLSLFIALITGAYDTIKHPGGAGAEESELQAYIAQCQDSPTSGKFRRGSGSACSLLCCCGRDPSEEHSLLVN
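Tet-induced TRPML1-DL cells, 1,500 per well, cultured overnight, were loaded with a no-wash Ca2+ dye for 45–90 min. Calcium fluorescence was recorded on the FDSS for 110 s after compound addition, before the EC80 agonist (4 uM 54-4) was added.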
ClpP mod: qHTS Assay for Activators of ClpP; Potency, µM (top dose mostly 57.5 µM), without a hit: top-dose activity change, negative = active; 1.9% of 340,000 active; ATP-dependent Clp protease proteolytic subunit (Bacillus subtilis (strain 168)), P80244; purified B. subtilis ClpP, FRET peptide cleavage, 20 min; active = well fitted falling curve with a large enough effect; inconclusive = small, poorly fitted or top-dose-only effect; inactive = no such curve, though single readings can be large or run the other way; note: potency is the fitted concentration of half-maximal effect; the source files actives as falling curves though it sought activators and does not explain the sign; nearly all actives have a fitted effect of over 65% in size; many hits overshoot -100%
Target sequence (P80244 whole entry, looked up): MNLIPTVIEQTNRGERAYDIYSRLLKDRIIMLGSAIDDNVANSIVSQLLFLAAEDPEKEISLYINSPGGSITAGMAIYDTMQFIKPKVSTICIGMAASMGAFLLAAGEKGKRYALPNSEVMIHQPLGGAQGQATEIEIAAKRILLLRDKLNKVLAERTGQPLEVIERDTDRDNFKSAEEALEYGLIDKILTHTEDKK
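ClpP 10 microg/mL final, pH 8 Tris/KCl buffer with BSA, glycerol, Tween-20; compound pinned in; FRET-FV substrate; RT 20 min; Ex320/Em430; ΔFRET vs ADEP 5.8 microM, DMSO, no enzyme.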
TRPML1 blocker: human mucolipin-1 channel inhibition; Q9GZU1; TRPML1-inducible cells, Ca2+ dye fluorescence, FDSS; stronger effect = lower value; inhibition of EC80 agonist-evoked calcium signal; activity change, negative = inhibition, % (no concentration beside the values); 0.02% of 390,000 active; AID 624415; in the data active means activity change below about -50%; inconclusive means about -30% to -50%; inactive means above about -30%;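 note: stimulus is agonist 54-4 at its EC80 concentration; % is set by controls: 0 for no effect and ±100 for the full control effect; compound concentration not given in the record; the text of the record puts the active cut at -80%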
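Calcium fluorescence in TRPML1-DL cells induced overnight with Tet: a 110 s read after compound pin addition, then a 110 s antagonist read after challenge with 54-4 at 4 uM final (EC80).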
Starred values were filed as active, the others as inactive; ? = inconclusive; / = not tested or not shown; & = joins results of further samples; [ ] = remark or other dose.

Values run as follows: gsp agonist, gsp antagonist, Menin MLL FP FL, TRPML1 ag, ClpP mod, TRPML1 blocker
CCOc1ccc2nc(N(CCN(CC)CC)C(=O)/C=C/c3cccs3)sc2c1
  14.2%, -6.4%, /, -1.1, -0.5%, 8.3
O=C(O)C1C2C=CC(CC2)C1C(=O)O (configuration not stated)
  -48.2%[inhibitor], 15.4%, -2.2, 0.0, -5.4%, -13.9
COc1ccc(N2C(=O)CC(N(Cc3ccc(S(N)(=O)=O)cc3)C(C)=O)C2=O)cc1 (configuration not stated)
  ?, 10.7%, 1.7, 0.8, 1.1%, 14.8
O=C(CNC(=O)c1ccc(Cl)cc1Cl)OCCOc1ccccc1
  -40.9%[inhibitor], -6.9%, /, -0.3, -3.2%, 11.9
Cc1ccc2c(Cl)c(C(=O)Nc3cccnc3)sc2c1
  25.4%, -2.7%, -0.4, 0.1, 9.5%, 8.7
Cc1ccccc1OCc1nnc(SCC(=O)Nc2ccc3c(c2)OCO3)n1C
  13.3%, 2.2%, -0.2, 0.3, -0.7%, -1.7
O=C(O)CNc1nc(NCc2ccc(Cl)cc2)ccc1[N+](=O)[O-]
  26.1%, /, /, -0.8, 0.4%, -0.7
COc1ccc(N2CCN(S(=O)(=O)c3ccc4oc(=O)c5ncn(C)c5c4c3)CC2)cc1
  /, /, /, -0.5, 1.7%, -11.4
CCCCCCSc1ccc([C@@H]2[C@@H]3C(=O)N(C)C(=O)[C@@H]3[C@]3(C(=O)OC)CCCCN23)cc1OC
  /, -13.3%, /, -0.3, -11.6%, 44.8
O=C(NCCN1CCCC1)C1(S(=O)(=O)c2ccc(Cl)cc2)CC1
  ?, 2.7%, 3.4, 0.8, 0.7%, 3.6
O=c1c2ccccc2nc(-c2ccco2)n1/N=C/c1ccco1
  28.0%, -9.1%[15.4 µM], -1.0, 1.1, -1.8%, 10.9
c1ccc(Cc2nn3c(COc4ccccc4)nnc3s2)cc1
  -23.8%, 9.8%, -0.4, 0.8, 0.2%, -1.7
O=C1CCCC(O)=C1N=Nc1ccc2ncsc2c1
  -20.7%, -16.2%, 8.7, -0.5, 1.4%, 14.0
CCc1nc(SCC(=O)NNC(=O)c2ccc(OC)cc2)c2ccccc2n1
  31.2%[15.4 µM], 30.0%, -0.9, -1.0, /, 0.2
Cc1cnc(C(=O)OCC(=O)Nc2ccc(Cl)cc2Cl)cn1
  ?, -3.8%, 2.7, -1.1, -2.0%, 5.9

Values run as follows: gsp agonist, gsp antagonist, Menin MLL FP FL, TRPML1 ag, ClpP mod, TRPML1 blocker
CCOC(=O)c1ccc(NC(=O)CN2C(=O)CN(C(C)=O)C2=S)cc1
  14.2%, -4.1%, 3.5, 0.2, 0.6%, 7.3
COc1ccc(OC)c(NC(=O)CSc2nc3nc(C)cc(C)n3n2)c1
  19.5%, 2.1%, /, 0.4, 3.4%, -1.9
CCOC(=O)c1cc(NC(=O)c2c(C)noc2C)cc(C(=O)OCC)c1
  1.8%, -15.9%, 0.0, 1.0, -0.9%, 3.3
Clc1ccc(-n2cccc2CN2CCc3c([nH]c4ccccc34)C2c2ccccn2)nc1 (configuration not stated)
  -3.5%, -7.4%, -0.1, -0.3, -4.1%, 10.8
CCOc1ccccc1C(=O)Oc1c(S(=O)(=O)c2ccc(C)cc2)c(C)nn1-c1ccccc1
  /, /, /, -0.8, -10.1%, -3.8
O=c1[nH]c(NNC(=S)NC2CCCCC2)nc2c1C1(CCCC1)Cc1ccccc1-2
  ?, 2.9%, 7.2, 0.7, /, -6.6
CC1CCN(CCCNC(=O)c2cn(C)c3ccc(S(=O)(=O)N(C)C4CCCCC4)cc3c2=O)CC1
  /, /, /, -0.4, -1.1%, -4.0
O=c1cc(N2CCOCC2)[nH]c(=O)n1C1CCCCC1
  0.2%, 31.8%, -0.1, -1.1, 0.8%, 8.7
Cc1nc(-c2ccc(S(=O)(=O)N3CCN(C(c4ccccc4)c4ccccc4)CC3)s2)cs1
  11.8%[15.4 µM], 9.5%, ?, 0.4, -8.5%, -0.9
CC(C)c1ccc(CNc2nc(-c3ccco3)nn2S(=O)(=O)c2ccccc2)cc1
  /, /, /, 0.8, -7.9%, -7.0
CCOC(=O)C1(CCOc2ccccc2)CCN(CC(O)CO)CC1 (configuration not stated)
  18.7%, 5.4%, -1.9, -0.1, 6.4%, -10.2
COc1ccc(C(=O)NC2(C(F)(F)F)C(=O)NC(C)=C2C#N)cc1 (configuration not stated)
  /, /, /, 2.8, -0.4%, 8.3
CC(=O)c1c(C)[nH]c(C(=O)OCC(=O)N2CCN(S(=O)(=O)c3ccc(C)cc3C)CC2)c1C
  -8.2%, ?, -2.5, 0.2, -1.1%, 3.7
O=C(NC1CCCC1)C(c1cccnc1)N(C(=O)c1ccco1)c1ccc(F)cc1 (configuration not stated)
  1.1%[15.4 µM], 4.4%, -6.1, -0.1, /, -1.6
CC(C(=O)N(C)Cc1ccccc1)N1CCN(C/C=C/c2ccccc2)CC1 (configuration not stated)
  23.8%, 8.0%, -2.3, -0.9, /, -17.8

Results in TRPML1 blocker and ClpP mod (3 entries from above):
canonical_smiles,TRPML1 blocker,ClpP mod
O=c1cc(N2CCOCC2)[nH]c(=O)n1C1CCCCC1,8.7,0.8%
Cc1nc(-c2ccc(S(=O)(=O)N3CCN(C(c4ccccc4)c4ccccc4)CC3)s2)cs1,-0.9,-8.5%
CC(C)c1ccc(CNc2nc(-c3ccco3)nn2S(=O)(=O)c2ccccc2)cc1,-7.0,-7.9%

The list continues:
Values run as follows: gsp agonist, gsp antagonist, Menin MLL FP FL, TRPML1 ag, ClpP mod, TRPML1 blocker
N#Cc1ccc(NC(=O)Cn2c3[n+](c4ccc(C(F)(F)F)cc42)CCCCC3)cc1
  1.9%[15.4 µM], 13.8%, 4.4, 0.9, /, 5.6
Cc1cc(C)c(C(N)=O)c(NC(=O)Nc2ccccc2)n1
  10.4%, 11.2%, 3.0, -0.9, -16.2%, 6.2
O=C(COC(=O)C1CCCCC1)Nc1ccccc1OC(F)F
  17.0%[15.4 µM], -1.9%, -2.5, 0.5, /, 18.2
CCCCNC(=O)CCN1N=C(c2ccccc2)CCC1=O
  -42.2%[inhibitor], 3.4%, -0.7, 1.1, 0.5%, -19.6
O=C(NNC(=O)c1cccs1)c1csc(N2CCOCC2)n1
  -10.8%, 2.7%, /, -0.2, 0.9%, -10.0
Cn1c(SCC(=O)Nc2ccccc2)nc2ccccc2c1=O
  5.3%, -3.0%, 3.5, 1.6, /, -8.9
CCCC(=O)Nc1cccc(C(=O)Nc2nccs2)c1
  12.3%, -18.3%, 1.6, -0.4, 0.6%, 12.1
CCCCn1c(CN2CCN(c3ccccc3)CC2)nc2c1c(=O)n(C)c(=O)n2C
  ?, 14.7%, 10.3, 0.0, 0.8%, 16.9
CCc1ccc2nc(N(Cc3cccnc3)C(=O)Cc3ccccc3)sc2c1
  /, /, /, 1.6, -4.9%, 7.9
O=C1CSC(c2cccc(F)c2)N1c1c(F)cccc1F (configuration not stated)
  17.0%, -4.7%, 0.5, 2.0, 0.5%, 18.7
CCCn1c(SCC(=O)NC2CCCc3ccccc32)n[nH]c1=O (configuration not stated)
  3.4%[15.4 µM], 11.3%, 3.5, -1.2, -0.2%, -13.1
CC[C@]1(c2ccccc2C)ON(c2ccccc2C(F)(F)F)C1=O
  /, -5.4%, /, 0.4, 0.0%, -3.8
O=C(N/N=C/c1ccc(OCc2ccccc2)cc1)c1ccco1
  -0.9%, -6.2%, 4.7, 0.8, /, 4.2
S=C(NCCCN1CCN(CCCNC(=S)NC2CCCCC2)CC1)NC1CCCCC1
  -6.3%, 2.7%, /, -0.6, /, 13.7
CCOC(=O)c1cc(NC(=O)N(C(C)C)C2CCCCC2)c(C)nc1C
  -1.0%, 9.2%, 11.5, -0.6, /, -14.0

Values run as follows: gsp agonist, gsp antagonist, Menin MLL FP FL, TRPML1 ag, ClpP mod, TRPML1 blocker
CNC(=S)N/N=C(\C)c1cccc([N+](=O)[O-])c1
  -2.6%[15.4 µM], -7.3%, 4.6, -0.1, -22.3%, 3.7
CSc1ccc(Cl)c(C(=O)NCC(C)C)c1
  -30.1%[inhibitor], -2.2%, -1.5, 0.2, -5.1%, 0.2
CCC/C=C1/CCCOC(C(=O)NCCN2CCOCC2)(C(F)(F)F)C1 (configuration not stated)
  /, 3.8%, -3.0, 1.5&0.7, 0.9%, -11.1&2.6
O=S(=O)(Nc1ccccc1)c1ccc(NS(=O)(=O)c2c(F)cccc2F)cc1
  19.8%[15.4 µM], -16.0%, 3.4, -1.7, -23.1%, ?
CCOc1ccc(-c2cc(C(=O)N/N=C(\C)c3cccnc3)c3ccccc3n2)c(OCC)c1
  ?, -4.3%, 6.9, 0.7, -24.7%, -26.1
Cc1cc(C(=O)COC(=O)c2ccccc2O)c(C)n1CC1CCCO1 (configuration not stated)
  -13.8%, ?, /, 1.7, 0.7%, 13.9
O=C(CN(C(=O)C1CSC(=O)C1)c1ccccc1F)NCc1ccc2c(c1)OCO2 (configuration not stated)
  -11.5%, -8.3%, 1.9, 0.0, 2.8%, -4.9
CCC[C@@H](CN1CCC[C@H]1CN1C(N)=NC[C@@H]1Cc1ccccc1)N1C[C@@H]([C@H](C)CC)N(CCc2ccc(Cl)c(Cl)c2)C1=N
  /, -2.3%, /, -0.1, -2.2%, -0.1
Cc1cccc(CN2CCN(C3CN(Cc4ccc(F)cc4)S(=O)(=O)C3)CC2)c1 (configuration not stated)
  /, /, /, 0.6, -1.8%, 16.6
COC(=O)c1ccc(NC(=O)CCS(=O)(=O)c2ccc(Br)cc2)cc1
  5.3%[15.4 µM], 8.6%, -0.3, 1.4&1.7, -0.1%, -5.8&8.6
Cc1c(NS(=O)(=O)c2cccc(C(=O)Nc3ccccc3)c2)c(=O)n(-c2ccccc2)n1C
  -25.9%, 2.5%, /, -0.5, 0.2%, -4.7
CC1(C)Cc2c(sc3c2c(=N)n(Cc2ccco2)c(=O)n3CC(=O)Nc2ccc(Cl)cc2)CO1
  0.5%, -10.4%, 7.1, 0.5, -3.7%, 7.9
O=C(CCNC(=O)c1ccc(Cl)cc1)Nc1ccc(S(=O)(=O)N2CCOCC2)cc1
  15.5%, 11.6%, /, 1.7, 0.7%, 2.4
O=C1C(Cl)=C(N2CCCCCC2)C(=O)N1c1ccccc1
  -15.7%, 2.2%, 1.7, 1.7, 1.1%, -3.9
Cc1csc(Nc2ccccc2C(F)(F)F)n1
  0.8%, -12.5%, 10.1, 1.9, 3.5%, 11.8
Cc1cc(C)c2nc(N3CCCC(C(=O)N4CCN(c5ncccn5)CC4)C3)sc2c1 (configuration not stated)
  -66.4%, 6.0%, 1.3, 0.9, -2.1%, 3.5
COc1ccccc1N1CCN(Cc2nc(-c3cc(OC)c(OC)c(OC)c3)no2)CC1
  /, /, /, -1.1, -27.5%, -13.3
O=C1NC(c2cccnc2)C(C(=O)c2cccs2)C(O)(C(F)(F)F)N1 (configuration not stated)
  0.0%, 11.2%, 3.6, -0.4, -4.1%, 20.2
